# rRNA inh HTS: reduced GFP signal of wild-type E. coli, primary screen, bacterial rRNA inhibitor project, GFP/RFP fluorescence, OD600, single point. AID 720706, 2013. E. coli WT GFP vs humanized-ribosome RFP mutants, 24 h; hits give low values; DMSO median 0, no signal -100. GFP signal change (wild-type ribosome), % (no concentration beside the values). actives 1.6% (n = 350,000);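 active means significant combined selectivity score with lowered wild-type GFP, culture density cut under 30%, mutant RFP and density less affected; inactive means any of these conditions unmet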; further: one replicate is shown; some compounds called inactive have numbers as strong as hits
# FGF22 binding: binders of human FGF22 protein, primary screen, FGF22 synaptogenesis inhibitor project, biophysical, thermal shift, single point. Fibroblast growth factor 22 (Homo sapiens), Q9HCT0. actives 1.5% (n = 340,000). AID 651658, 2012. calls only at 9.99 µM. recombinant FGF22 thermal shift, SYPRO orange fluorescence; percent of sucrose octasulfate shift, DMSO zero;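 active means melting point raised past a set limit in the mean and every replicate; three in four hits are not shown here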
# Target sequence (Q9HCT0 whole entry, looked up): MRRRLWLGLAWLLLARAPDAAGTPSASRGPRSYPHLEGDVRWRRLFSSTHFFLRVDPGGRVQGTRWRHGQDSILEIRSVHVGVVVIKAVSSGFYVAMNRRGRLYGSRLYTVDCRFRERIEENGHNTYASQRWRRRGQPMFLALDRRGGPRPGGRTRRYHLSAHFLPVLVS
# AF4-AF9 inh: inhibitors of AF4 peptide binding to AF9, primary screen, biochemical, AlphaScreen, biotin-AF4 peptide, FLAG-AF9, single point; Protein AF-9 (Homo sapiens), P42568; actives 0.47% (n = 350,000); inhibition, % at 10 µM;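 active means every replicate reaching a set inhibition limit, whatever the replicate mean, cut at about 25% in these data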;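 further: 0% = plate neutral control median and 100% = total signal loss; the record names both 10 and 1 µM as test concentration; the first replicate is given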
# Target sequence (P42568 whole entry, looked up): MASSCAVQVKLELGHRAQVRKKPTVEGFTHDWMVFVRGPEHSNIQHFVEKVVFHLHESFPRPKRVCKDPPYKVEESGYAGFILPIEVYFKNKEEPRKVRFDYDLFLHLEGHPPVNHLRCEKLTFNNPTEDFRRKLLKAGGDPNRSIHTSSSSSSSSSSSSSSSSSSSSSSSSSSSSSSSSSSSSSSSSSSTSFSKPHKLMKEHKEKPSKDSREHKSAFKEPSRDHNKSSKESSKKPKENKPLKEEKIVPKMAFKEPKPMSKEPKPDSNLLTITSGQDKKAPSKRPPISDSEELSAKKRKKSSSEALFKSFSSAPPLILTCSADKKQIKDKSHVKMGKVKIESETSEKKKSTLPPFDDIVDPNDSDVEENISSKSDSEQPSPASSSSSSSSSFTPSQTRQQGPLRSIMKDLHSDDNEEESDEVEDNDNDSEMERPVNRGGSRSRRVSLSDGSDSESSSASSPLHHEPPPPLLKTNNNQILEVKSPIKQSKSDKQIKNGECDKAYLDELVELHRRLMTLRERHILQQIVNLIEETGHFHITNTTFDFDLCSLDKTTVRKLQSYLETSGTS
# rRNA inh HTS OD600: further read-out of rRNA inh HTS, marked with its call; OD600 change, %; measured here: OD600 growth;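 optical density of the mix in the first replicate; 0 = DMSO median and -100 = no signal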
# rRNA inh HTS RFP: further read-out of rRNA inh HTS, marked with its call; RFP signal change, %; measured here: RFP humanized mutant strains;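 first replicate; 0 = DMSO median and -100 = no signal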
# * marks the source's active call; other numbers are inactive results; i = inactive; & = joins results of further samples. An excerpt, so the mix of outcomes need not match the whole.
item	mol	rRNA inh HTS	rRNA inh HTS OD600	rRNA inh HTS RFP
1	CCCN(C)C[C@@H]1Oc2cc(C#Cc3cccc(F)c3)ccc2S(=O)(=O)N([C@@H](C)CO)C[C@H]1C	7	-8	28
2	CCCNC(=O)C[C@@H]1CC[C@@H]2[C@@H](COc3ccc(NS(=O)(=O)CC)cc3C(=O)N2C)O1	1	-12	-1.4
3	CCCNC(=O)Nc1ccc2c(c1)OC[C@H](C)N(C(=O)c1ccccc1F)C[C@@H](C)[C@H](OC)CN(C)C2=O	0	4	-3.5
4	C[C@@H]1CN([C@H](C)CO)C(=O)Cc2cc(NC(=O)Nc3ccc4c(c3)OCO4)ccc2O[C@@H]1CN(C)C(=O)Nc1ccc(C(F)(F)F)cc1	2	-3	1.0
5	CO[C@@H](CN(C)S(=O)(=O)c1ccccc1)[C@H](C)CN(C(=O)Nc1ccccc1F)[C@@H](C)CO	-2	11	-2.1
6	COc1cc(OCc2ccccc2)c2c(CCC(=O)O)cc(=O)oc2c1	-42	-47	-8.6
7	Cc1noc(C)c1S(=O)(=O)N(C)C[C@H]1OCCCC[C@H](C)Oc2ccc(NS(C)(=O)=O)cc2C(=O)N([C@H](C)CO)C[C@@H]1C	-1	-2	-0.1
8	C[C@@H]1CN([C@H](C)CO)C(=O)Cc2cc(NC(=O)Nc3ccc(F)cc3)ccc2O[C@@H]1CN(C)Cc1ccc2c(c1)OCO2	-52	-71	-12
9	COc1ccc(NC(=O)N[C@@H]2CC[C@@H](CCNC(=O)CN3CCOCC3)O[C@H]2CO)cc1	3	9	-0.3
10	COCC(=O)Nc1ccc2c(c1)C(=O)N(C)C[C@@H](OC)[C@H](C)CN(C(=O)COC)[C@H](C)CO2	1	0	-3.4
11	CO[C@@H]1CN(C)C(=O)c2ccc(NC(=O)C3CC3)cc2OC[C@H](C)N(Cc2ccncc2)C[C@@H]1C	-4	3	-0.4
12	C[C@@H]1CCCCO[C@H](CN(C)C)[C@@H](C)CN([C@H](C)CO)C(=O)c2cc(NC(=O)Nc3cccc4ccccc34)ccc2O1	2	2	0.2

item	FGF22 binding	AF4-AF9 inh
1	i	0.2
2	i	-1.8
3	i	-13
4	i	5.3
5	i	-4.1
6	i	-8.8
7	i	-7.4
8	i	0.7
9	i	-1.5
10	i	1.2
11	i	-7.2
12	i	4.9

# Two entries from above, reformatted:
# Values in the order – rRNA inh HTS | rRNA inh HTS OD600 | rRNA inh HTS RFP | FGF22 binding | AF4-AF9 inh
6. COc1cc(OCc2ccccc2)c2c(CCC(=O)O)cc(=O)oc2c1
 : -42 | -47 | -8.6 | i | -8.8
12. C[C@@H]1CCCCO[C@H](CN(C)C)[C@@H](C)CN([C@H](C)CO)C(=O)c2cc(NC(=O)Nc3cccc4ccccc34)ccc2O1
 : 2 | 2 | 0.2 | i | 4.9

# Carrying on:
item	mol	rRNA inh HTS	rRNA inh HTS OD600	rRNA inh HTS RFP
13	COc1cccc(S(=O)(=O)N2CCCCN3[C@H](C2)[C@H](c2ccc(C#CCC(C)C)cc2)[C@@H]3CO)c1	-1	-10	5.5
14	COc1ccc(S(=O)(=O)N[C@@H]2C=C[C@@H](CC(=O)NCCc3ccccc3)O[C@@H]2CO)cc1	1	3	-5.4
15	CC(C)C(=O)Nc1ccc2c(c1)C(=O)N(C)[C@H]1CC[C@H](CC(=O)Nc3cccc(Cl)c3)O[C@@H]1CO2	-5	-26	0.0
16	CNC[C@@H]1Oc2ccc(NC(=O)Nc3ccc(OC)cc3)cc2C(=O)N([C@H](C)CO)C[C@@H]1C	0	1	-0.4
17	COc1cc(OC)nc(Nc2nc(C(N)Cc3ccc(Cl)cc3)cs2)n1 (centres undefined)	-60	-83	-22
18	CSc1ncnc2c1ncn2CCCN1CCN(c2ncccn2)CC1	4	11	-1.3
19	CCc1cnc(N2[C@@H](C#N)[C@@H](c3ccc(C4=CCCCC4)cc3)[C@@H]2CO)s1	-2	-27	-6.3
20	O=C(Nc1ccccc1)N1CCCCN2[C@@H](CO)[C@@H](c3ccc(C#CC4CC4)cc3)[C@@H]2C1	-50	-71	-2.4
21	CCC(=O)Nc1ccc2c(c1)C(=O)N(C)C[C@@H](OC)[C@H](C)CN(C(=O)c1ccncc1)[C@H](C)CO2	1	5	-2.8
22	CC(=Nc1ccccc1)C1=C(O)C(Cc2ccccc2)NC1=O (centres undefined)	-5	-10	-1.4
23	O=C(COC(=O)c1ccc(Cl)c(S(=O)(=O)N2CCCCCC2)c1)NCc1ccccc1	0	-23	1.4
24	COCC#Cc1ccc2c(c1)O[C@H](CN(C)Cc1ccc(F)cc1)[C@@H](C)CN([C@@H](C)CO)S2(=O)=O	-24	-54	1.2

item	FGF22 binding	AF4-AF9 inh
13	i	-3.5
14	i	1.1
15	i	-0.1
16	i	-0.1
17	i	15
18	i	-6.1
19	i	4.1
20	i	14
21	i	1.3
22	i	-1.9
23	i	-5.2
24	i	3.5

# Continued.
item	mol	rRNA inh HTS	rRNA inh HTS OD600	rRNA inh HTS RFP
25	CC(C)N1CCC1(C)C(=O)Nc1ccc2cn[nH]c2c1 (centres undefined)	7	7	0.7
26	CC(=O)Nc1cccc(-c2ccnc3c2CC(C)(C(=O)NCc2cccs2)O3)c1 (centres undefined)	-17	-27	-11
27	O=C(Nc1cc(F)ccc1F)N1CCCCN2[C@@H](CO)[C@H](c3ccc(-c4ccncc4)cc3)[C@@H]2C1	-19*	-5.7*	2.5*
28	COc1cccc(-c2ccc([C@@H]3[C@@H](CO)N4C(=O)CN(C(=O)c5cccnc5)C[C@H]34)cc2)c1	-6	5	-2.7
29	O=C(C[C@@H]1C=C[C@H](NC(=O)c2cccc(F)c2)[C@H](CO)O1)NCCN1CCCC1	2	14	-0.7
30	C[C@@H]1CN([C@@H](C)CO)C(=O)CCCn2cc(nn2)CO[C@H]1CN(C)C(=O)CCC(F)(F)F	2&25	1&5	-0.3&3.2
31	CO[C@H]1CN(C)C(=O)c2cc(NC(=O)C3CCC3)ccc2OC[C@H](C)N(Cc2nccs2)C[C@H]1C	-1	-2	-3.2
32	O=C(c1ccccc1)N1C[C@H]2[C@@H](c3ccccc31)[C@@H](CO)N2Cc1ccccn1	-1	6	3.0
33	Cc1ccc(S(=O)(=O)N(C)C[C@@H]2Oc3ccc(NS(C)(=O)=O)cc3CC(=O)N([C@@H](C)CO)C[C@@H]2C)cc1	3	9	-0.1
34	C[C@H]1CN([C@@H](C)CO)C(=O)c2cc(NC(=O)Nc3cccc4ccccc34)ccc2O[C@H]1CN(C)C(=O)Nc1ccc(C(F)(F)F)cc1	-4	-6	0.3
35	C[C@H]1CCCCO[C@H](CN(C)C(=O)Cc2ccccc2)[C@@H](C)CN([C@@H](C)CO)C(=O)c2cc(NC(=O)c3ccncc3)ccc2O1	0	-1	0.1
36	C[C@@H]1CN([C@@H](C)CO)C(=O)c2cc(NC(=O)CCN3CCOCC3)ccc2O[C@H]1CN(C)Cc1ccc(C(F)(F)F)cc1	-3	7	0.3

item	FGF22 binding	AF4-AF9 inh
25	i	-1.9
26	i	-2.7
27	i	5.2
28	i	10
29	i	-0.5
30	i	0.6&0.7&-3.1
31	i	3.3
32	i	1.3
33	i	-9.5
34	i	2.5
35	i	-3.4
36	i	0.2

# Later entries:
item	mol	rRNA inh HTS	rRNA inh HTS OD600	rRNA inh HTS RFP
37	C[C@@H]1CN([C@H](C)CO)C(=O)c2cc(-c3ccc(C(=O)N(C)C)cc3)cnc2O[C@@H]1CN(C)C(=O)CN(C)C	5	10	-0.3
38	COc1cc(Nc2cccc(-c3ccccc3)n2)cc(OC)c1OC	-15	-49	1.5
39	C[C@H](CO)N1C[C@H](C)[C@H](CN(C)S(=O)(=O)c2cn(C)cn2)OCCCC[C@H](C)Oc2ccc(NC(=O)Nc3ccc4c(c3)OCO4)cc2C1=O	-1	2	-1.2
40	C[C@@H](NC(=O)C[C@H]1CC[C@H](NC(=O)c2cccnc2)[C@@H](CO)O1)c1ccccc1	1	2	-1.9
41	N#Cc1ccc(OCc2c(-c3ccccc3)nnn2CC(=O)O)cc1	11	20	-13
42	CCNC(=O)C[C@@H]1CC[C@H]2[C@@H](COc3ccc(NC(=O)c4ccc5c(c4)OCO5)cc3C(=O)N2C)O1	1	-1	-0.7
43	C[C@@H]1CCCCO[C@@H](CN(C)Cc2ccc(Cl)c(Cl)c2)[C@@H](C)CN([C@H](C)CO)C(=O)c2cc(NS(=O)(=O)c3ccc(F)cc3)ccc2O1	5	8	1.7
44	COc1ccc(NC(=O)Nc2cccc3c2O[C@H](CN(C)C(=O)NC2CCCCC2)[C@H](C)CN([C@@H](C)CO)C3=O)cc1	-5	-3	-1.3
45	CC(C)CC#Cc1ccc2c(c1)O[C@H](CN(C)Cc1cccc(F)c1)[C@@H](C)CN([C@H](C)CO)S2(=O)=O	-4	11	-7.5
46	CCCCC1CCC(C(=O)N(CCC(C)C)c2c(N)n(CCCC)c(=O)[nH]c2=O)CC1 (centres undefined)	0	-2	-2.7
47	COc1ccc(NC(=O)c2cc(-c3cc(F)ccc3OC(C)C)n[nH]2)c(C)c1	-5	-22	-0.2
48	COc1ccccc1C#Cc1ccc([C@@H]2[C@@H](CO)N(C(=O)C3CC3)[C@H]2C#N)cc1	0	-1	0.1

item	FGF22 binding	AF4-AF9 inh
37	i	-3.9
38	i	9.5
39	i	1.9
40	i	-0.1
41	i	-1.4
42	i	-11
43	i	-12
44	i	2.7
45	i	-0.6
46	i	-1.0
47	i	-2.0
48	i	1.4

# Later entries.
item	mol	rRNA inh HTS	rRNA inh HTS OD600	rRNA inh HTS RFP
49	COc1ccc(NC(=O)N(C)C[C@@H]2Oc3ccc(NC(=O)c4ccncc4)cc3C(=O)N([C@@H](C)CO)C[C@H]2C)cc1	5	-3	-0.3
50	C[C@@H]1CN([C@@H](C)CO)S(=O)(=O)c2ccc(-c3cccnc3)cc2O[C@H]1CN(C)C(=O)NC1CCCC1	-2	4	0.3
51	C[C@H]1CCCCO[C@H](CN(C)CC2CCCCC2)[C@@H](C)CN([C@@H](C)CO)C(=O)c2cc(NC(=O)Nc3ccc(F)cc3)ccc2O1	-24	-45	30
52	CO[C@H]1CC[C@H]2CCN(C)C(=O)[C@@H](C)[C@H](OC)CN(C)C(=O)c3cccc(C#N)c3OC[C@@H]1O2	6	23	-1.5
53	C/C=C/c1ccc2c(c1)O[C@@H](CN(C)C(=O)COC)[C@@H](C)CN([C@@H](C)CO)S2(=O)=O	-1	3	-2.6
54	O=C(Cc1c(Cl)cccc1Cl)OCC(=O)c1ccc[nH]1	-23	-38	-9.5
55	C[C@@H]1CN([C@@H](C)CO)C(=O)c2cccc(NC(=O)c3nc4ccccc4s3)c2O[C@H]1CN(C)C(=O)Nc1ccc(F)cc1	2	-6	-1.2
56	CCCNC(=O)C[C@H]1CC[C@H]2[C@@H](COC[C@@H](O)CN2Cc2ccncc2)O1	1	-4	-2.2
57	CC(=O)N(C)C[C@H]1Oc2ncc(-c3ccccc3F)cc2C(=O)N([C@H](C)CO)C[C@H]1C	-2	4	1.9
58	O=C(C[C@@H]1CC[C@@H]2[C@H](COC[C@@H](O)CN2Cc2ccc(F)cc2)O1)NCc1ccncn1	4	13	-3.7
59	O=C(Nc1ccccc1Cl)c1cc(C2CCCN(S(=O)(=O)c3cccs3)C2)on1 (centres undefined)	1	2	-2.1
60	O=C(C(=O)N1CCC(CNS(=O)(=O)c2ccc3ccccc3c2)CC1)c1cc2ccccc2o1	-2	-4	13

item	FGF22 binding	AF4-AF9 inh
49	i	-2.6
50	i	1.3
51	i	9.8
52	i	3.9
53	i	-7.5
54	i	0.9
55	i	-2.0
56	i	-3.8
57	i	-1.8
58	i	-4.6
59	i	-1.0
60	i	-4.4

# The list goes on.
item	mol	rRNA inh HTS	rRNA inh HTS OD600	rRNA inh HTS RFP
61	CCOC(=O)C1=C(C(=O)OCC)C2N(Cc3ccc(Br)cc3)c3ccccc3[C@@]23C[C@@H](C(=O)OC)N(S(=O)(=O)c2ccc(Br)cc2)C3=N1 (some centres undefined)	4	10	-3.8
62	Cc1ccc(S(=O)(=O)N(C)C[C@H]2Oc3c(NC(=O)c4nc5ccccc5s4)cccc3C(=O)N([C@H](C)CO)C[C@@H]2C)cc1	-5	0	-4.5
63	C[C@H](CO)N1C[C@H](C)[C@H](CN(C)S(=O)(=O)c2ccc(F)cc2)Oc2c(NC(=O)C3CC3)cccc2C1=O	-4	-3	0.9
64	COc1cccc(-c2ccc([C@@H]3[C@@H](C#N)N(C(=O)c4ccccn4)[C@H]3CO)cc2)c1	-22	-44	26
65	Cc1ccc(S(=O)(=O)Nc2cccc3c2O[C@H](CN(C)Cc2ccc(-c4ccccc4)cc2)[C@@H](C)CN([C@@H](C)CO)C3=O)cc1	4	5	2.3

item	FGF22 binding	AF4-AF9 inh
61	i	-1.7
62	i	-0.3
63	i	-0.3
64	i	-0.4
65	i	1.2

# Screens: PubChem, Broad Institute
